# Sa helicase inh: S. aureus DNA helicase inhibition | inhibition, %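 (tested at about 80 µM)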 | actives 0.05% (n = 120,000) | purified S. aureus helicase, fluorescence unwinding assay; about half of the hits fall short of the stated cut | AID 485395;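 active = both duplicates at 50% or more, or one of them with a favoured structure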;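 note: 0% = mean of negative control wells and 100% = mean of positive control wells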
# MgrA DNA FP: S. aureus MgrA-DNA binding modulation | fluorescence polarization | inhibition, %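 (about 10 µg/mL by stock and volumes)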 | actives 0.13% (n = 84,000);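 active = above 50% in either of two replicates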;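 note: 0% = protein plus DNA without compound and 100% = DNA alone without protein; higher means less MgrA bound to DNA so lower polarization; one replicate is shown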
# * hit, by the source's call; x = not tested or not shown.
MgrA DNA FP,Sa helicase inh,SMILES
x,-4,CCC1CCCCN1S(=O)(=O)c1ccc(S(=O)(=O)N2CCN(c3ncccn3)CC2)cc1 (stereo not given)
1.2,x,CC(C)(O)C(=O)/C=C/c1ccc2c(c1)OCO2
x,7,c1ccc2c(N3CCC(N4CCCCC4)CC3)nnc(Cc3ccncc3)c2c1
-0.1,3,COc1ccc2nc(N(CCN(C)C)C(=O)c3cccs3)sc2c1
x,-17,O=C(O)CSc1cccc2cccc(C(=O)O)c12
-0.2,x,Cc1c(S(=O)(=O)Nc2ccc(Cl)cc2)sc2ccc(Cl)cc12
x,-5,NC(=O)COC(=O)CCN1c2ccccc2Sc2ccccc21
-2.2,5,COc1cccc(/C=C2/Sc3ccc(C(=O)N4CC(C)CC(C)C4)cc3NC2=O)c1 (stereo not given)
-1.6,x,Cc1nnc(-c2cccc(S(=O)(=O)N3CCCC3c3ccc(F)cc3)c2)o1 (stereo not given)
x,9,CC1(C)CC(NC(=O)COC(=O)CCc2ccc(S(=O)(=O)N3CCCCC3)cc2)CC(C)(C)N1
x,-5,COc1ccccc1N1CCN(CCC(=O)Nc2ccc3c(c2)CCC3)CC1
x,9,O=C(CSc1cnc2ccccc2n1)NC1CCS(=O)(=O)C1 (stereo not given)
x,-15,O=C(O)CCc1nc2sc3c(c2c(=O)[nH]1)CCCC3
x,8,O=C1/C(=C/c2cccnc2)SC(=S)N1C1CCCC1
4.2,16,CCN1C(=O)c2ccc(C(=O)Nc3nccs3)cc2C1=O
x,-12,ON=C1CC2C3C/C(=N\O)C4C3CC2C14 (stereo not given)
-1.0,x,CCOC(=O)CCSC1=NC(c2cccs2)C(C(=O)OCC)=C(C)N1 (stereo not given)
-0.9,3,N#Cc1c(N2C(=O)C3C4C=CC(C4)C3C2=O)sc2c1CCCC2 (stereo not given)
x,-16,CN(C)CCS(C)(=O)=O
x,13,C=CCn1c(=N)n(CC(=O)OC)c2ccccc21
-2.8,x,O=C(O)c1ccc(Cl)cc1C(=O)O
0.0,x,CC1OCN(c2ccc(F)cc2)Cn2c1nc1ccccc12 (stereo not given)
x,12,CC(C)OC(=O)CNc1n[nH]c(=S)[nH]c1=O
x,16,CC(C)CCNC(=O)Cn1c(=O)c2cccn2c2ccc(F)cc21
0.5,-7,CC(=O)Nc1cc2c(s1)CCCC2
-0.6,4,Oc1ccccc1C=Nc1ccc(Br)cc1
-0.3,-6,COc1ccc(-c2ccc(=O)n(CC(=O)N(C)c3ccccc3)n2)cc1
0.1,7,CCN(CC)c1ncnc2sc3c(c12)CCC3
x,27,COc1ccc(C)cc1Nc1nc2ccc(C)cc2n2cnnc12
-1.4,-5,CNC(=O)c1cccc(NC(=S)NC)c1

# In a second layout: entries from further up.
# Value order – MgrA DNA FP	Sa helicase inh
ON=C1CC2C3C/C(=N\O)C4C3CC2C14 (stereo not given)
  x	-12
CCOC(=O)CCSC1=NC(c2cccs2)C(C(=O)OCC)=C(C)N1 (stereo not given)
  -1.0	x
N#Cc1c(N2C(=O)C3C4C=CC(C4)C3C2=O)sc2c1CCCC2 (stereo not given)
  -0.9	3
CN(C)CCS(C)(=O)=O
  x	-16

# Further structures.
MgrA DNA FP,Sa helicase inh,SMILES
x,5,CNC(=O)C1CCN(C(=O)N2CC(C)Oc3ccccc32)CC1 (stereo not given)
4.1,x,Cc1ccc(C)n1CCN1CCN(S(=O)(=O)c2cc(Br)c(Br)s2)CC1
7.6,0,CCCNC(=O)c1cc(C)c2c(C)nn(-c3ccccc3)c2n1
-2.3,17,O=C(Nc1ccncc1)OC1CCCC1
0.2,x,c1cc[n+](C[n+]2ccccc2)cc1
x,-15,NC(=O)CSc1nc2scc(-c3ccco3)c2c(=O)n1-c1ccccc1
4.0,3,CC(C)(C)Nc1ncnc2c1sc1nc3c(cc12)COC(C)(C)C3
1.1,x,CC1CN(C(=O)CS(=O)(=O)c2ccc(F)cc2)CC(C)O1 (stereo not given)
2.0,-5,C=CCn1c(CSc2nc3ccccc3s2)nnc1SCC(=O)NCCN1CCOCC1
x,-12,CN(Cc1ccccc1)c1ncnc2ccc(Br)cc12
0.4,6,Fc1ccc(Cn2nnc3ccccc32)cc1
-0.7,x,CC1CN(C(C#N)c2c(F)cccc2Cl)CC(C)O1 (stereo not given)
-0.2,x,COc1cccc(C=Nc2ccccc2N2C(=O)c3ccccc3C2=O)c1O
1.9,x,Cc1c(C=Nc2ccc(C(C)C)cc2)sc2ccccc12
-4.3,8,CN(C(=O)CSC1=NCCS1)c1ccccc1
-0.7,7,CCn1nnc(NC(=O)Cc2ccccc2)n1
x,1,CCOC(=O)N1CCN(C(=O)c2noc3c2CCCC3)CC1
x,9,N#CC1=CN(Cc2ccccc2)C=C(/C=N/Nc2ccc(F)cc2)C1
0.5,x,COc1ccccc1NC(=O)c1cc2ccccc2o/c1=N\c1sc2c(c1C(N)=O)CCCC2
x,0,Cc1onc(-c2ccccc2)c1C(=O)N1CCCSC1=Nc1ccccc1
4.4,13,Cc1cc(N(C)Cc2ccccc2)nc2cc(O)ccc12
0.3,-21,COc1cccc(-c2coc3cc4oc(=O)cc(C)c4cc23)c1
x,-4,CCN(CC)C(=O)COc1ccc2c(c1)C(=O)CC1(CCN(C(C)=O)CC1)O2
-2.9,x,O=C1c2ccccc2C(=O)N1Cc1ccncc1
x,-7,C/C(N)=C(/C#N)C(=O)CSc1nc(N)cc(=O)[nH]1
x,20,CCN1C(=O)c2ccccc2S(=O)c2ccc(C(=O)NCCc3ccc(C)cc3)cc21 (stereo not given)
0.4,-1,S=c1[nH]ncn1NCc1cccc(Br)c1
-1.9,21,N#CC1=C(S)N(c2ccccc2)C2(CCCCC2)NC1=O
2.9,4,COc1ccc2[nH]c(=O)c(CN(CCCN3CCOCC3)C(=O)Nc3ccccc3)cc2c1
-1.5,14,CN(C1CCCCC1)S(=O)(=O)c1cc(Br)cc2c1N(C(=O)C1CC1)CC2

# Going on with the list.
MgrA DNA FP,Sa helicase inh,SMILES
x,-4,CCCSc1nc2c3ccccc3ncn2n1
x,12,CCOC(=O)c1nn(-c2ccc(F)cc2)c(=O)c2c(NC(=O)c3ccc(Br)o3)scc12
1.1,x,CCOC(=O)c1sc(C)nc1C(F)(F)F
-1.2,-17,COC(=O)C1=C(C)NC(C)=C(C(=O)c2ccccc2)C1c1ccc(Br)cc1 (stereo not given)
x,-221,Cc1ccc(/C=C/C2=Cc3c(sc(N)c3C#N)C(C)(C)C2)o1
-2.3,x,CC1c2ccsc2CCN1C(=O)c1ccc(C(F)(F)F)cc1 (stereo not given)
x,10,O=C1CCN(Cc2ccccc2)C(=O)N1c1ccc2c(c1)CCO2
0.0,x,Cc1csc(-c2c(Cl)cc(C(F)(F)F)cc2Cl)n1
x,-12,CCCN(C(=O)CC)c1nc(-c2ccccc2)cs1
-0.3,11,CCN(CC)c1ccc(C(=O)OCC(=O)N(C)Cc2ccccc2)cc1
2.2,2,Cc1cc(=O)cc(C(F)(F)F)o1
-0.9,-4,Cc1cn(C2CCC(CO)O2)c(=O)[nH]c1=O (stereo not given)
x,-7,O=C(Cn1cnc2ccccc2c1=O)OCC(=O)N1CCOCC1
x,-15,Cc1cc2c(cc1S(=O)(=O)N(CC(C)C)CC(C)C)OCC(=O)N2
0.9,8,O=c1[nH]c(CSc2nnc(CCCOc3ccc(Cl)cc3Cl)o2)nc2ccccc12
0.3,4,CC1Sc2cc(S(=O)(=O)N3CCc4ccccc4C3)ccc2NC1=O (stereo not given)
x,6,CCC1(C)NC(=O)N(NC(=O)CCc2c[nH]c3ccccc23)C1=O (stereo not given)
0.4,14,CCN(CC)c1nc2ccccc2n2cnnc12
x,5,Cc1ccc(Nc2nc(CSc3nnnn3-c3ccccc3)cc(=O)[nH]2)cc1
0.7,12,N#Cc1c(-c2ccccc2)nc(SCC(=O)N2CCCc3ccccc32)[nH]c1=O
-10,14,NCCC12CC3CC(C1)CC(C(=O)O)(C3)C2
1.1,7,COc1ccc(CN/C(C)=C/c2nsc(Nc3ccc(F)cc3)n2)cc1
-0.4,5,Cc1cc(C)cc(OCc2ccc(C(=O)O)o2)c1
x,5,Cc1ccc(C)c(S(=O)(=O)Nc2ccc(O)c(Cl)c2)c1
4.3,8,COC(=O)C1=C(C)N(C(C)C)C(=O)/C1=C\c1ccc(C(=O)O)cc1
x,-5,COc1ccc(N(CN2C(=O)c3ccccc3C2=O)C(=O)C(C)C)cc1
-7.8,6,FC(F)(F)c1cccc(-c2noc(-c3ccccn3)n2)c1
-1.1,x,Cn1c(SCc2cc(=O)oc3cc(O)ccc23)nnc1C(F)(F)F
x,17,CCOC(=O)c1cn[nH]c1NC(=S)NCc1ccccc1
x,-27,COc1ccc(Br)cc1CNC(=O)C1CCN(C(=O)c2sccc2-n2cccc2)CC1

# Continued.
MgrA DNA FP,Sa helicase inh,SMILES
x,23,NC1=NC(c2cccc(Oc3ccccc3)c2)n2c(nc3ccccc32)N1 (stereo not given)
1.1,x,CN(C)c1nc(N)ncc1-c1ccccc1
-1.9,-8,CCOC(=O)c1ccc(NC(=O)CCC(C)C(=O)O)cc1 (stereo not given)
2.5,4,Cc1ccc(SCCC(=O)Nc2c(C)n(C)n(-c3ccccc3)c2=O)cc1
x,-2,Cc1nn(-c2ccccc2)c2sc(C(=O)OCC#N)cc12
-0.9,8,Cc1ccc(C2=NS(=O)(=O)N(C)C(C(=O)N3CCc4ccccc4C3)=C2)cc1
x,-18,O=C(CSc1nc2ccccc2nc1N1CCCC1)Nc1ccc(F)cc1
0.7,-2,Cc1nnc(N2C(=N)S/C(=C\c3ccccc3Cl)C2=O)s1
x,2,COC(=O)c1ccc(NC(=O)CNc2cc(Cl)ccc2OC)cc1
-0.5,12,COC(=O)Cn1c(CCS(=O)(=O)c2ccc(Cl)cc2)nc2ccccc21
x,2,CCCSc1nc2c(cnn2-c2ccccc2)c(=O)[nH]1
x,-2,Cc1ccc(C)c2[nH]c(=O)c(CCNC(=O)C3CCCC3)cc12
2.0,14,OC(CSc1cccc2cccnc12)Cn1c2ccccc2c2ccccc21 (stereo not given)
-0.2,10,Nn1c(-c2ccccc2)cn2c(cc3sccc32)c1=S
5.2,9,CN(Cc1nc2ccccc2n1C)S(=O)(=O)c1ccc(Cl)cc1
1.2,x,COc1ccc2[nH]c(C(=O)NCCCn3ccnc3)cc2c1
x,3,OC(CN1CCC(Cc2ccccc2)CC1)c1ccccc1 (stereo not given)
1.2,-9,O=C(/C=C/c1ccccc1)NC(O)C(=O)c1ccccc1 (stereo not given)
x,-4,Cc1ccc(C)c(N2N=C(C(=O)OCC(=O)NCc3ccco3)CCC2=O)c1
-0.2,x,Cc1cc(C)c2nc3s/c(=C/c4cccn4-c4ccc([N+](=O)[O-])cc4)c(=O)n3c2c1
x,9,CN1C(=O)C2C=C(C(=O)NCCN3CCC(Cc4ccccc4)CC3)SC2c2ccccc21 (stereo not given)
x,2,CCn1c(CN(C)Cc2cccc(F)c2)nc2cc(S(=O)(=O)N(C)C)ccc21
0.2,x,CC(C)(C)NC(=S)NC1CC1
x,19,N/C(=N\O)c1cnn2c(C(F)(F)F)cc(C(F)(F)F)nc12
2.2,0,COC(=O)C(CC(=O)c1ccc(Br)cc1)(Cc1ccc(Br)cc1)C(=O)OC
x,1,O=C(O)c1cnn(-c2ccccc2)c1-n1cccc1CNCc1ccc(Cl)cc1
x,7,O=C(Nc1ncnc2sc3c(c12)CCC3)c1ccccc1
-5.4,17,O=C(CC(c1ccccc1)c1ccccc1)Nc1nn[nH]n1
x,19,Cc1nn2cnnc2c(C)c1CCC(=O)NC1CCCCC1
4.9,-12,Cc1nn(CCC(=O)NCc2ccco2)c(C)c1Cl

# The list goes on; it opens with the seven that closed the last part.
MgrA DNA FP,Sa helicase inh,SMILES
x,19,N/C(=N\O)c1cnn2c(C(F)(F)F)cc(C(F)(F)F)nc12
2.2,0,COC(=O)C(CC(=O)c1ccc(Br)cc1)(Cc1ccc(Br)cc1)C(=O)OC
x,1,O=C(O)c1cnn(-c2ccccc2)c1-n1cccc1CNCc1ccc(Cl)cc1
x,7,O=C(Nc1ncnc2sc3c(c12)CCC3)c1ccccc1
-5.4,17,O=C(CC(c1ccccc1)c1ccccc1)Nc1nn[nH]n1
x,19,Cc1nn2cnnc2c(C)c1CCC(=O)NC1CCCCC1
4.9,-12,Cc1nn(CCC(=O)NCc2ccco2)c(C)c1Cl
-4.6,-41,CN1CCS/C1=C\C=C1/SC(=S)N(c2ccccc2)C1=O
1.1,17,CCC(=O)Nc1n[nH]c(-c2ccncc2)n1
-2.8,x,Cc1cc(Cl)cc(Cl)c1CN(C)C(=O)c1cnc(Oc2ccc(Cl)cc2)cc1C(F)(F)F
-2.4,-11,COC(=O)C1=C(C)N(Cc2ccc(OC)cc2)C(=O)/C1=C\c1ccco1
-7.1,7,COc1ccc(C(=O)Cn2nc(CNc3ccc(Br)cc3)[n+]3c2CCCCC3)cc1
-2.8,x,COc1cc(O)oc1C=Nc1ccccc1
-7.1,x,CC1CC2(C)C(O)CCC2C2CCc3cc(O)ccc3C12 (stereo not given)
-1.4,x,N#C/C(=C\c1ccc(C(F)(F)F)cc1)c1ccc(O)cc1
-1.4,x,CN(C)c1ccc(/C=C/C=N/c2sccc2C#N)cc1
x,-7,O=C(NCCCN1CCCC1=O)c1cc(-c2ccccc2)nc2ccccc12
0.2,-22,CCN(CC)S(=O)(=O)c1ccc(Cl)c(C(=O)NCC(C)C)c1
x,4,CC(NC(=O)CSc1ccc(S(=O)(=O)N(C)C)cn1)c1ccc2c(c1)OCCO2 (stereo not given)
x,-15,Cc1nn(-c2ccccc2)c2nc(-c3ccccc3)cc(C(=O)NC3=NCCS3)c12
x,4,C/C(=C/C(=O)C(F)(F)F)N1CCN(c2ccccc2F)CC1
x,-2,c1ccc(CSC2=NCCS2)cc1
x,13,Brc1ccc(OCc2nnc3n2CCCCC3)cc1
-1.6,13,CC1=Nc2ccccc2NC(=O)C1Cc1ccccc1 (stereo not given)

# Source: PubChem BioAssay

# Not all compounds are listed. The share of hits here may be higher or lower than overall.
